StopGo RLuc: Primary qHTS Assay for Foot and Mouth Disease Virus Antivirals against NCGC Sytravon and CBC Compound Libraries: Renilla Luciferase Signal. HEK cells with a luciferase reporter of 2A StopGo recoding. hit rate 0.32% among 120,000. Potency, µM (doses to about 57.5 µM), without a hit: top-dose signal change, negative = less light. AID 1745857, 2022; active means well fitted falling curve with a large enough effect; inconclusive means small, poorly fitted or top-dose-only effect; inactive means no such curve, though single readings can be large or run the other way; note: nearly all actives have a fitted effect of over 55% in size; overnight with compound
2A firefly: Primary qHTS Assay for Foot and Mouth Disease Virus Antivirals against NCGC Sytravon and CBC Compound Libraries: Firefly Luciferase Signal; AID 1745856, 2022; HEK cells with a luciferase reporter of 2A StopGo recoding; hit rate 0.23% among 120,000; Potency, µM (series often up to 57.5 µM), inactives show at the top dose signal change, negative = less light; active = well fitted falling curve with a large enough effect; inconclusive = small, poorly fitted or top-dose-only effect; inactive = no such curve, though single readings can be large or run the other way; note: nearly all actives have a fitted effect of over 60% in size; overnight with compound
* marks the source's active call; other numbers are inactive results; ? = inconclusive; & = joins results of further samples; [ ] = remark or other dose. % is set by controls: 0 for no effect and ±100 for the full control effect; potency is the fitted concentration of half-maximal effect.

compound	StopGo RLuc	2A firefly
CCn1c(SCc2cc(OC)c(OC)cc2Br)nc2cc(S(N)(=O)=O)ccc21	-15%	-18%
CC(=O)c1ccc(NCC(=O)N2N=C(c3ccc(C)o3)CC2c2ccco2)cc1 (stereo not given)	-16%	18%
COc1ccccc1CNC(=O)C(CC(C)C)NS(=O)(=O)c1ccc2c(c1)oc(=O)n2C (stereo not given)	-9%	?
COc1cccc(/C=C/C(=O)c2cc3ccccc3oc2=O)c1	152%[activator]	0%
COc1cc(OC)cc(-c2cc3nc(C)c(CCC(=O)Nc4ccc(F)c(Cl)c4)c(C)n3n2)c1	0%	?
O=C(CN1C(=O)C2(SCC(=O)N2c2ccccc2)c2ccccc21)NCc1ccccc1 (stereo not given)	-3%	-17%
Clc1ccc(NCc2nnc3n2CCCCC3)cc1	-12%	13%
O=C(Cc1csc(-c2cccs2)n1)NCc1ccc(F)cc1	11%	54%[activator]
CCN(CC)CCCNC(=O)CSc1c2c(nc3cc(Cl)ccc13)CCCC2	21%	33%
COc1ccc(NC(=O)CSC2=Nc3ccccc3C3=NC(CC(=O)NCc4ccc5c(c4)OCO5)C(=O)N23)cc1 (stereo not given)	6%	0%
CCOc1ccc(C2C(C(N)=O)=C(C)Nc3nc(SCc4ccccc4)nn32)cc1 (stereo not given)	-2%	0%
CC(C)CC(=O)NCCc1ccccn1	7%	0%
COc1cc(C(C)=O)ccc1OS(=O)(=O)c1ccc2c(c1)CCC2	69%[activator]	0%
CCOC(=O)c1oc2cc(OCC(=O)OC)ccc2c(=O)c1-c1ccc(OC)c(OC)c1	-9%	-3%
CSc1nc(-c2ccccc2)c2ccccc2n1	29%	246%[activator]

The last two compounds of the section before open the next one.
compound	StopGo RLuc	2A firefly
CCOC(=O)c1oc2cc(OCC(=O)OC)ccc2c(=O)c1-c1ccc(OC)c(OC)c1	-9%	-3%
CSc1nc(-c2ccccc2)c2ccccc2n1	29%	246%[activator]
N#C/C(=C/c1ccc(OCc2ccccc2C#N)c(Br)c1)c1ccccc1	15%	19%
CCN(C(=O)CCc1c[nH]c2ccccc12)c1ccc(F)cc1	-3%	2%
CCN(CC)S(=O)(=O)c1cc(C)c(C)c(N)c1	35%[activator]	-2%
O=C(OCc1ncc(-c2ccccc2)o1)c1ccc(Cl)nc1	8%	33%[activator]
COC(=O)c1ccc(CSc2c(C(C)C)cnc3c2c(=O)n(C)c(=O)n3C)cc1	7%	-12%
CCOC(=O)c1cc2cc(Oc3cccc(C)c3)ccc2n1C	-1%	20%
COC(=O)c1c(C)[nH]c(C(=O)C(C)OC(=O)c2cccc(F)c2)c1C (stereo not given)	36%[activator]	0%
CC(NC(=O)NC12CC3CC(CC(C3)C1)C2)c1ccc(Br)cc1 (stereo not given)	-4%	-9%
Cc1cc(C)cc(Oc2coc3cc(OCC(=O)NC4CCCCC4)ccc3c2=O)c1	-7%	-3%
CCOc1ccc(NC(=O)Nc2ccc(F)c(-c3nnc(-c4ccccc4)o3)c2)cc1	-2%	13%
CC(CNC(=O)CC(c1ccccc1)c1ccccc1)OC12CC3CC(CC(C3)C1)C2 (stereo not given)	25%	-11%
Cc1ccc(S(=O)(=O)CCC(=O)N2CCN(c3nc4c(C)c(Cl)ccc4s3)CC2)cc1	-11%	-1%
CNC(=O)c1ccc(-c2nc(CN3CCN(C(=O)Nc4cc(C)ccc4C)CC3)c(C)o2)cc1	-21%	-17%
CCC(C)C(=O)NCc1ccc(COC)cc1 (stereo not given)	?	?
Cc1cccc(NC(=O)c2sc3ncnc(N(C)C4CCCCC4)c3c2C)c1C	0%	17%
Cc1ccc(C(CNC(=O)c2cc(=O)c3cc(C)c(C)cc3o2)N2CCC(C)CC2)o1 (stereo not given)	-11%	0%
Cc1ccc2c(Cl)c(C(=O)NCc3ccco3)sc2c1	4%	155%[activator]
CCOc1ccc(C(=O)NCCc2sc(-c3ccc(OC)cc3)nc2C)cc1	16%	88%[activator]
COc1ccc(CNCCC(c2ccccc2)c2ccc3c(c2)OCO3)cc1 (stereo not given)	14%	-28%
COc1cccc(N2CCN(C(=O)c3cnc4c(C)cccn4c3=O)CC2)c1	0%	0%
CN(CC(C#N)CCC#N)C1CCCCCC1 (stereo not given)	21%	27%
CC(=O)c1ccc(N2CCN(S(=O)(=O)c3ccc4c(c3)NC(=O)CCS4)CC2)cc1	2%	25%
O=C(c1n[nH]c(=O)c2ccccc12)N1CCCC1c1ccc2c(c1)OCCCO2 (stereo not given)	-9%	-2%
CC(C)(C)C1CCc2nc(NC(=O)COc3ccccc3[N+](=O)[O-])sc2C1 (stereo not given)	5%	?
CC(CN1CCCC1)OC(=O)c1cc(C(C)(C)C)cc(C(C)(C)C)c1 (stereo not given)	-7%	?
Cc1sc2ncn(CC(=O)Nc3ccc(F)cc3Cl)c(=O)c2c1S(=O)(=O)N1CCN(c2ncccn2)CC1	-4%	-18%
CC(C)CCn1cnc2c1c(=O)n(CC(=O)Nc1ccc(F)c(F)c1)c(=O)n2Cc1ccccc1	-6%	-16%
Cc1occc(=O)c1OCc1noc(C(=O)NCc2ccccc2Cl)n1	0%	-8%
CCC(C)NC(=O)Cn1cccc1-c1nc(-c2cccc(Cl)c2)no1 (stereo not given)	-8%	14%
COc1ccc2c(=O)c(-c3ccccc3OC)c(C)oc2c1	-17%	37%[activator]
O=C(NCCc1ccccc1)c1ccc2nc(CCc3ccccc3)oc2c1	1%	82%[activator]
Cc1ccc(-c2cnc(SCC(=O)Nc3ccc(Cl)cc3)o2)cc1C	-12%	7%
C#CCN1C(=O)S/C(=C/c2cn(CC=C)c3ccccc23)C1=O	-15%	8%
O=C(COc1ccccc1[N+](=O)[O-])N(Cc1ccco1)c1ccccn1	15%	114%[activator]
CC12CN3CC(C)(CN(C1)C3c1ccccc1)C2=O (stereo not given)	6%	-4%
CCCSc1nnc2[nH]c(=O)cc(C)n12	2%	-12%
NC(=O)c1ccc(NC(=O)c2ccc3nc(-n4cccc4)sc3c2)cc1	-6%	50%[activator]
COC(=O)c1[nH]c2ccc(C)cc2c1NC(=O)CCN1CCCCC1	-7%	-10%
Cc1ccc(NC(=O)c2oc3ccccc3c2NC(=O)c2ccccc2C)cc1	-5%	39%[activator]
CC(C)CCC(CCNC(C)c1cccs1)C1CCOC(C)(C)C1 (stereo not given)	17%	-10%
CC(C)Cn1c(=O)c2ccccc2n2c(CCC(=O)NCc3ccccc3Cl)nnc12	-7%	-7%
COc1ccccc1NC(=O)CSc1nc(=O)n(Cc2cccnc2)c2c1CCC2	61%[activator]	-3%
FC(F)Oc1ccc(-c2ccnc(=S)[nH]2)cc1	24%	122%[activator]
O=C(CS(=O)(=O)c1ccc2ccccc2c1)c1ccc(Cl)cc1	117%[activator]	10%
COc1ccc(Cn2ccc3nc(C)c(C(=O)Nc4ccc(OC)cc4OC)cc3c2=O)cc1	9%	-7%
CC(CCc1ccccc1)NC(=O)CSc1c2c(nc3ccc(Cl)cc13)CCCC2 (stereo not given)	-12%	-8%
Cc1ccc(-c2cnc(CCC(=O)NC(C)C3CC3)o2)cc1C (stereo not given)	9%	0%
O=C(Cc1n[nH]c(=O)c2ccccc12)NCCN1CCCCCC1=O	7%	21%
CC(=O)Nc1ccc(NC(=O)COc2ccc3ccc(=O)oc3c2)cc1	-6%	2%
Cc1ccc(C)c(S(=O)(=O)c2cn(Cc3ccccc3)c3cc(N4CCCC4)c(F)cc3c2=O)c1	3%	-6%
COc1ccc(C)cc1-n1ccnc1SCC(=O)Nc1nc2ccccc2s1	10%	0%
CCCCCCCCS(=O)CCCCC(=O)O (stereo not given)	-9%	6%
COc1cccc(NC(=O)CSc2nccn2C2CCCC2)c1	8%	93%[activator]
Cc1ccc(C(=O)N2CCSCC2)s1	9%	34%[activator]
Cc1nc2nc(SCC(=O)NC(C)c3ccccc3)nn2c(C)c1Cc1c(F)cccc1Cl (stereo not given)	-15%	-20%
Cc1cc(C(=O)O)cc(S(=O)(=O)Nc2ccc(Cl)c3cccnc23)c1C	51%[activator]	0%
COc1ccc(C2=Nn3c(nc4sc(C(=O)Nc5cccc(C)c5)c(C)c4c3=O)SC2)cc1	-1%	21%
CCOC(=O)C(O)(NC(=O)c1c(F)cccc1F)C(F)(F)F (stereo not given)	109%[activator]	83%[activator]
Cc1ccc(-c2ccc(=O)n(Cc3ccc(F)cc3)n2)cc1	-5%	7%
Cc1nn(-c2ncccn2)c2c1C(c1ccccc1OCCc1ccccc1)CC(=O)N2 (stereo not given)	13%	4%

Other results follow.
compound	StopGo RLuc	2A firefly
CN(C)C(=N)c1ccc(N(C)C)cc1	9%	7%
CCOc1ccc(N2CC(NC(=O)C3CCCC3)CC2=O)cc1 (stereo not given)	6%	-11%
COc1ccccc1CNC(=O)C1CCN(S(=O)(=O)c2cn(C)cn2)CC1	-17%	-3%
CCN1CCN(c2csc3ccc(F)cc3c2=O)CC1	78%[activator]	23%
COc1ccc(C(=O)Oc2ccc(C(C)(C)C)cc2)cc1Br	-3%	0%
O=C(CCc1c[nH]c2ccccc12)NCc1cccc(Cl)c1	26%	15%
O=C(CCS(=O)(=O)c1cccs1)Nc1ccc(C(=O)Nc2cccc(Cl)c2)cc1	-17%	146%[activator]
Cc1cc2oc(=O)cc(CSc3nnc4ccccn34)c2cc1C	4%	7%
COc1ccc(CNC(=O)C2CCN(S(=O)(=O)c3c(C)noc3/C=C/c3cccs3)CC2)cc1	-17%	-20%
C=CCNC(=O)NC(=O)CN(CC)c1cccc(F)c1	3%	0%
COC(=O)CCCCCCCNS(=O)(=O)c1ccc([N+](=O)[O-])cc1	-4%	-6%
O=C(CCc1ccsc1)NC1CCSc2ccc(F)cc21 (stereo not given)	24%	-4%
CC(C)(c1nnnn1-c1ccccc1)N1CCOCC1	-5%	-2%
COc1ccccc1C(=O)Nc1nc2nc(-c3ccccc3)cc(=O)n2[nH]1	-4%	-5%
Cc1ccc2c(CN3CCc4ccccc43)cc(=O)oc2c1C	13%	144%[activator]

Compound profiles, from the list above. Order of values: StopGo RLuc	2A firefly
CCOc1ccc(N2CC(NC(=O)C3CCCC3)CC2=O)cc1 (stereo not given) as listed: 6%	-11%
COc1ccc(C(=O)Oc2ccc(C(C)(C)C)cc2)cc1Br as listed: -3%	0%
O=C(CCc1ccsc1)NC1CCSc2ccc(F)cc21 (stereo not given) as listed: 24%	-4%

Continued.
compound	StopGo RLuc	2A firefly
N#CCCC(C#N)Cn1c(=O)c2c(ncn2Cc2ccccc2)n(Cc2ccccc2)c1=O (stereo not given)	9%	-6%
CCc1ccc2c(CN3CCCC3c3cccc(OC)c3)cc(=O)oc2c1 (stereo not given)	10%	-1%
CCOC(=O)c1ccc(NC(=O)c2c(NCc3ccc(OC)c(OC)c3OC)sc3c2CCC(C)C3)cc1 (stereo not given)	-17%	-19%
Cc1cc(C)nc(Nc2ncc(O)n2-c2ccc(Br)cc2)n1	0%	-5%
CC1(c2ccccc2)COC(c2coc3ccccc3c2=O)OC1 (stereo not given)	-2%	180%[activator]
CCOC(=O)c1c(C)oc2nc(C)nc(NCC3CCN(Cc4ccccc4C)CC3)c12	-17%	-15%
O=C(Nc1cccc(-c2nc3ccccc3o2)c1)C(F)(F)F	35%&-14%[activator]	260%&-17%[activator]
Cc1cc2ccccc2n1CCNC(=O)c1ccc(Br)cc1	26%	20%
O=C(NCC(c1ccccc1)c1c[nH]c2ccccc12)c1ccccn1 (stereo not given)	16%	22%
Cn1c(=O)[nH]c(=O)c2c1nc1n2CCN1c1ccccc1	-5%	-9%
Cc1oc(-c2cccc(Cl)c2)nc1CN1CCCC(C(=O)N2CCN(c3ccc(F)cc3)CC2)C1 (stereo not given)	?	?
Cc1ccc(C)c(N2C(=O)N(Cc3cc(=O)n4ccccc4n3)c3ccccc3S2(=O)=O)c1	6%	?
O=C(CCCCCn1c(=O)[nH]c2ccccc2c1=O)NCc1ccccc1	11%	38%[activator]
CCOC(=O)C(=O)Nc1ccc(C(=O)OCC)cc1	3%	-1%
O=C1C(=O)N(C2CCN(C(=O)c3ccccc3Cl)CC2)CCN1Cc1ccc(F)cc1	-14%	-12%
Cc1ccc2c(CSc3nnnn3C3CC3)cc(=O)oc2c1	132%[activator]	147%[activator]
COC(=O)c1nc2ccccc2nc1N1CCN(c2cc(C)ccc2C)CC1	-7%	-13%
CCc1ccc(CN(Cc2cn[nH]c2-c2ccc(OC)cc2)C(=O)Nc2ccc(C)c(F)c2)cc1	?	-28%
CCCc1cc(N2CCN(c3cccc(C)c3C)CC2)n2cnnc2n1	-4%	-11%
Cc1ccc(Cn2c(CNC(=O)c3ccccc3Br)nc3cccnc32)cc1	17%	5%

By substructure, those above containing a CF3 group (2)
compound	StopGo RLuc	2A firefly
CCOC(=O)C(O)(NC(=O)c1c(F)cccc1F)C(F)(F)F (stereo not given)	109%[activator]	83%[activator]
O=C(Nc1cccc(-c2nc3ccccc3o2)c1)C(F)(F)F	35%&-14%[activator]	260%&-17%[activator]

Hits appear at their usual frequency. About 0.53% of those tested had a hit in this group.
